High-throughput results as filed in PubChem.
Sa helicase inh: blocks Staphylococcus aureus DNA helicase | purified S. aureus helicase, fluorescence unwinding assay; about half of the hits fall short of the stated cut | AID 485395 | inhibition, %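 (tested at about 80 µM)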 | 120,000 tested, 0.05% active;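 active = both duplicates at 50% or more, or one of them with a favoured structure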;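 note: 0% = mean of negative control wells and 100% = mean of positive control wells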
MgrA DNA FP: modulators of Staphylococcus aureus MgrA DNA binding. fluorescence polarization. inhibition, %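 (about 10 µg/mL by stock and volumes)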. 84,000 tested, 0.13% active. AID 602314;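 active = above 50% in either of two replicates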;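 note: 0% = protein plus DNA without compound and 100% = DNA alone without protein; higher means less MgrA bound to DNA so lower polarization; one replicate is shown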
The depositor's hits bear a star; x = no result given; & = joins results of further samples. The list is partial; rates above refer to the full screens.

| cpd | Molecule | MgrA DNA FP | Sa helicase inh |
| --- | --- | --- | --- |
| 1 | COc1cc(NC(=O)c2cc(C3CC3)on2)c(OC)cc1Cl | x | 5 |
| 2 | CN(C)CCOC(=O)C(c1ccccc1)C1(O)CCCC1 (stereo unspecified) | 1.2&2.2 | x |
| 3 | CCCN(CCC)C(=O)C(CCC(=O)O)NC(=O)c1ccccc1 (stereo unspecified) | -2.4&2.8 | x |
| 4 | OCC(O)CN1CCN(c2ccccc2)CC1 (stereo unspecified) | 5.7&5.6 | x |
| 5 | CN=C(NC#N)Nc1ccc(C2=NNC(=O)CC2C)cc1 (stereo unspecified) | 1.2 | x |
| 6 | C=C1c2cccc(O)c2C(O)=C2C(=O)C3(O)C(O)=C(C(N)=O)C(=O)C(N(C)C)C3C(O)C12 (stereo unspecified) | x | -26 |
| 7 | CCCCOC(=O)c1ccc(N)cc1 | -0.1&-1.1 | x |
| 8 | O=c1[nH]c(-c2ccc(C(F)(F)F)cc2)nc2c1CSCC2 | -1.9 | x |
| 9 | Cc1c(C(C)C)c(=O)n(-c2ccccc2)n1C | x | 0 |
| 10 | CN1CCC(=C2c3ccccc3CC(=O)c3sccc32)CC1 | -2.8&3.4 | x |
| 11 | Cc1oncc1C(=O)Nc1ccc(C(F)(F)F)cc1 | 5.2&-2.6 | x |
| 12 | NC(=O)c1ccc(-c2nc(-c3ccc4c(c3)OCO4)c(-c3ccccn3)[nH]2)cc1 | -0.3 | x |
| 13 | CN1CCN(CCCN2c3ccccc3Sc3ccc(S(=O)(=O)N(C)C)cc32)CC1 | -4.5 | x |
| 14 | O=C(O)CCCCCCCC(=O)O | 0.5 | x |
| 15 | O=C(O)c1cc(-c2ccccc2)no1 | -4.2 | 1 |
| 16 | CCN1CCN(c2cc(C)c3cc(NC(=S)NCc4ccc(C)cc4)ccc3n2)CC1 | -14 | 4 |
| 17 | COc1cc(C)nc(-n2nc(C)cc2OC)n1 | 0.1 | x |
| 18 | CCC(=O)Nc1cc(C(C)(C)C)on1 | x | -14 |
| 19 | O=C(c1ccccc1)c1ccc2n1CCC2C(=O)O (stereo unspecified) | 0.7&2.1 | x |
| 20 | Nc1ncnc(Nc2ccccc2)n1 | x | -19 |
| 21 | CN=C(N)NC(=O)Nc1c(C)cccc1C | -2.2 | 9 |
| 22 | Cc1ccc(C(=O)C(C)CN2CCCCC2)cc1 (stereo unspecified) | 4.1 | x |
| 23 | CCOC(=O)Nc1ccc2c(c1)N(C(=O)CCN1CCOCC1)c1ccccc1S2 | -1.5&5.6 | 1 |
| 24 | CC(C)(CO)[C@@H](O)C(=O)NCCCO | 2.9 | x |
| 25 | C#C[C@]1(O)CC[C@H]2[C@@H]3CCC4=CC(=O)CC[C@@H]4[C@H]3CC[C@@]21CC | 3.9 | x |

Given with values ahead of the structure: 2 of the compounds above
| no. | MgrA DNA FP | Sa helicase inh | molecule |
| --- | --- | --- | --- |
| 4 | 5.7&5.6 | x | OCC(O)CN1CCN(c2ccccc2)CC1 (stereo unspecified) |
| 5 | 1.2 | x | CN=C(NC#N)Nc1ccc(C2=NNC(=O)CC2C)cc1 (stereo unspecified) |

Given as labelled records: 2 of the compounds above
21: CN=C(N)NC(=O)Nc1c(C)cccc1C
  MgrA DNA FP: -2.2	Sa helicase inh: 9

3: CCCN(CCC)C(=O)C(CCC(=O)O)NC(=O)c1ccccc1 (stereo unspecified)
  MgrA DNA FP: -2.4&2.8	Sa helicase inh: x

Shown with values ahead of the structure: 4 of the compounds above
cpd	MgrA DNA FP	Sa helicase inh	SMILES
7	-0.1&-1.1	x	CCCCOC(=O)c1ccc(N)cc1
8	-1.9	x	O=c1[nH]c(-c2ccc(C(F)(F)F)cc2)nc2c1CSCC2
9	x	0	Cc1c(C(C)C)c(=O)n(-c2ccccc2)n1C
10	-2.8&3.4	x	CN1CCC(=C2c3ccccc3CC(=O)c3sccc32)CC1

Going on with the list:
| cpd | Molecule | MgrA DNA FP | Sa helicase inh |
| --- | --- | --- | --- |
| 26 | NC(=O)c1ccc([N+](=O)[O-])cc1Cl | 2.9 | x |
| 27 | Cc1ccsc1/C=C/C1=NCCCN1C | -3.0&-0.5 | x |
| 28 | O=C(O)CCC(=O)Nc1nc(-c2ccc3ccccc3c2)cs1 | x | 14 |
| 29 | CC[C@]12CCCN3CCc4c(n(c5ccccc45)[C@@](O)(C(=O)OC)C1)[C@@H]32 | 1.4 | x |
| 30 | NC(=O)NC(=O)Cc1ccccc1 | 0.5 | x |
| 31 | CCC(Cc1c(I)cc(I)c(N)c1I)C(=O)O (stereo unspecified) | 7.9&1.4 | x |
| 32 | OCCOCCN1CCN(C(c2ccccc2)c2ccc(Cl)cc2)CC1 (stereo unspecified) | -1.2 | x |
| 33 | CCN(CC)S(=O)(=O)c1ccc(C(=O)O)cc1 | x | -19 |
| 34 | CCN(CC)CCOC(=O)C(c1ccccc1)c1ccccc1 | -0.9&1.9 | x |
| 35 | CN(C)C(=N)N=C(N)N | 6.8&-1.2 | x |
| 36 | COC(=O)Nc1nc2ccc(S(=O)c3ccccc3)cc2[nH]1 (stereo unspecified) | 10 | x |
| 37 | CCCc1cc(C(N)=S)ccn1 | 6.2 | x |
| 38 | c1ccc(-c2nc3scc(-c4ccccc4)n3n2)cc1 | x | -11 |
| 39 | CC(C)(C(=O)c1cccnc1)c1cccnc1 | 1.9 | x |
| 40 | O=C1CCc2cc(OCCCCc3nnnn3C3CCCCC3)ccc2N1 | 1.1 | x |

Retrieved one by one from above (four):
| cpd | Molecule | MgrA DNA FP | Sa helicase inh |
| --- | --- | --- | --- |
| 10 | CN1CCC(=C2c3ccccc3CC(=O)c3sccc32)CC1 | -2.8&3.4 | x |
| 24 | CC(C)(CO)[C@@H](O)C(=O)NCCCO | 2.9 | x |
| 13 | CN1CCN(CCCN2c3ccccc3Sc3ccc(S(=O)(=O)N(C)C)cc32)CC1 | -4.5 | x |
| 8 | O=c1[nH]c(-c2ccc(C(F)(F)F)cc2)nc2c1CSCC2 | -1.9 | x |
